High-throughput results: PubChem, Center for Chemical Genomics, University of Michigan
HIV TAR-Tat – HIV-1 TAR-Tat binding disruption; HIV-1 TAR RNA, Tat peptide displacement FRET; active compounds read high; z-score (test concentration not listed); 100,000 compounds, 0.6% hits; AID 1259389;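 note: score is relative to mean and SD of negative controls; some compounds called inactive have numbers as strong as hits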
CDC25B CDK2 inh – human CDC25B-CDK2/CyclinA binding inhibition. P30305+P24941. HTRF CDC25B-CDK2/CyclinA binding, anti-His/anti-Flag; active compounds read high. z-score (no concentration beside the values). 94,000 compounds, 0.72% hits;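 note: score is relative to mean and SD of negative controls; strong numbers were not always called active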
An asterisk follows results filed as active.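 Rule for the calls: active = z-score from 3 up in half or more of its runs; inactive = the rest.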 Rows were taken by chance. About 0.94% of those tested had a hit in this group.

What do the screens show for `COc1ccc(C2C=C(C(=O)O)Nc3ncnn32)cc1OC` (centres undefined)?
HIV TAR-Tat: 0.06; CDC25B CDK2 inh: -0.17

How did O=C1c2ccccc2-c2onc3c(N4CCOCC4)cc(Nc4cccc(F)c4)c1c23 do in these assays?
HIV TAR-Tat: 0.23; CDC25B CDK2 inh: 0.54

Results for Cc1ccc(N2C(=O)N(c3ccc(C)c(Cl)c3)C3CS(=O)(=O)CC32)cc1 (centres undefined) ?
HIV TAR-Tat: 2.4; CDC25B CDK2 inh: -1.3

Results for CCN1C(=O)c2cc(C(=O)NCc3ccc(C)o3)nn2CC1(C)C(=O)NC1CCCC1 (centres undefined) ?
HIV TAR-Tat: 1.7

What do the screens show for `Oc1ccccc1C1=NN2C(C1)c1cc(Br)ccc1OC2c1ccncc1` (centres undefined)?
HIV TAR-Tat: -0.82; CDC25B CDK2 inh: 2.3

What do the screens show for `Cc1ccc(-c2[nH]c3ccccc3c2N)cc1`?
HIV TAR-Tat: 0.4

How did Cn1c(C(=O)N2CCCC(C(=O)N3CCN(Cc4ccc5c(c4)OCO5)CC3)C2)cc2sccc21 (centres undefined) do in these assays?
HIV TAR-Tat: 0.79; CDC25B CDK2 inh: 0.24

Results for S=C1NCN(CCc2ccccc2)CN1CC1CCCO1 (centres undefined) ?
CDC25B CDK2 inh: -0.28

What do the screens show for `N/C(=N\OC(=O)c1cc(-c2ccc(Cl)cc2)oc1C(F)(F)F)c1cccs1`?
CDC25B CDK2 inh: -2.2

How did CCOC(=O)N1CCN(C(=O)CCS(=O)(=O)c2ccc3c(c2)CC(C)N3C(=O)CC)CC1 (centres undefined) do in these assays?
HIV TAR-Tat: -0.09

How did CN(C)c1ccc(-c2nnc3n2N=C(c2ccc(Br)cc2)CS3)cc1 do in these assays?
HIV TAR-Tat: 1.5; CDC25B CDK2 inh: -2.3

Results for Cc1ccccc1Nc1nc(C2(C)CC3(CC(COCCC(C)C)OC3=O)C(=O)O2)cs1 (centres undefined) ?
CDC25B CDK2 inh: 0.26

What do the screens show for `N#Cc1nc(/C=C/c2ccc(F)cc2)oc1N1CCOCC1`?
HIV TAR-Tat: -0.27; CDC25B CDK2 inh: -1.9

What do the screens show for `Cc1ccnc(N2CCCC(C(=O)O)C2)n1` (centres undefined)?
HIV TAR-Tat: -1.8; CDC25B CDK2 inh: -0.87

How did CN1CCN(c2nnc(-c3ccccc3)c(-c3ccccc3)n2)CC1 do in these assays?
CDC25B CDK2 inh: -1.5

What do the screens show for `COc1cccc2cc(-c3nnc(SCC(=O)c4ccccc4)n3C)oc12`?
HIV TAR-Tat: 0.75

How did Cc1csc(NC(=O)CN2C(=O)c3ccccc3S2(=O)=O)n1 do in these assays?
HIV TAR-Tat: 0.7

Results for O=c1sc2ccccc2n1CCCOc1ccccc1Cl ?
HIV TAR-Tat: 1.8; CDC25B CDK2 inh: 0.99

Results for CCOC(=O)CN=C(NO)c1c(Cl)cccc1Cl ?
CDC25B CDK2 inh: -1.4

How did C=CCOC(=O)C1=C(C)N=C2SCCC(=O)N2C1c1ccccc1F (centres undefined) do in these assays?
HIV TAR-Tat: 4.5; CDC25B CDK2 inh: -0.21

Among those listed so far, these contain sulfur.
Results for Cc1ccc(N2C(=O)N(c3ccc(C)c(Cl)c3)C3CS(=O)(=O)CC32)cc1 (centres undefined) ?
HIV TAR-Tat: 2.4; CDC25B CDK2 inh: -1.3

How did Cn1c(C(=O)N2CCCC(C(=O)N3CCN(Cc4ccc5c(c4)OCO5)CC3)C2)cc2sccc21 (centres undefined) do in these assays?
HIV TAR-Tat: 0.79; CDC25B CDK2 inh: 0.24

Results for S=C1NCN(CCc2ccccc2)CN1CC1CCCO1 (centres undefined) ?
CDC25B CDK2 inh: -0.28

What do the screens show for `N/C(=N\OC(=O)c1cc(-c2ccc(Cl)cc2)oc1C(F)(F)F)c1cccs1`?
CDC25B CDK2 inh: -2.2

How did CCOC(=O)N1CCN(C(=O)CCS(=O)(=O)c2ccc3c(c2)CC(C)N3C(=O)CC)CC1 (centres undefined) do in these assays?
HIV TAR-Tat: -0.09

How did CN(C)c1ccc(-c2nnc3n2N=C(c2ccc(Br)cc2)CS3)cc1 do in these assays?
HIV TAR-Tat: 1.5; CDC25B CDK2 inh: -2.3

Results for Cc1ccccc1Nc1nc(C2(C)CC3(CC(COCCC(C)C)OC3=O)C(=O)O2)cs1 (centres undefined) ?
CDC25B CDK2 inh: 0.26

What do the screens show for `COc1cccc2cc(-c3nnc(SCC(=O)c4ccccc4)n3C)oc12`?
HIV TAR-Tat: 0.75

How did Cc1csc(NC(=O)CN2C(=O)c3ccccc3S2(=O)=O)n1 do in these assays?
HIV TAR-Tat: 0.7

Results for O=c1sc2ccccc2n1CCCOc1ccccc1Cl ?
HIV TAR-Tat: 1.8; CDC25B CDK2 inh: 0.99

How did C=CCOC(=O)C1=C(C)N=C2SCCC(=O)N2C1c1ccccc1F (centres undefined) do in these assays?
HIV TAR-Tat: 4.5; CDC25B CDK2 inh: -0.21

New compounds follow
Results for O=C(c1cc(NS(=O)(=O)c2ccc(F)cc2)ccn1)N1CCOCC1 ?
HIV TAR-Tat: 0.77

How did O=C(NCC1CCCO1)C1CCN(c2nnc(N3CCCC3=O)s2)CC1 (centres undefined) do in these assays?
HIV TAR-Tat: -1.2; CDC25B CDK2 inh: -0.9

How did Cc1ccc(-n2nnnc2CNS(=O)(=O)c2ccc(C)cc2)cc1 do in these assays?
HIV TAR-Tat: 1.1

How did CC1(C)O[C@@H]2CC3C4CCC5=CC(=O)CCC5(C)C4(F)C(O)CC3(C)[C@]2(C(=O)CCl)O1 (some centres undefined) do in these assays?
HIV TAR-Tat: -0.82

How did Cc1nn(CCCC(=O)NCc2ccccn2)c(=O)c2cc3sccc3n12 do in these assays?
HIV TAR-Tat: 0.27; CDC25B CDK2 inh: 0.19

What do the screens show for `O=C1C2ON(c3ccccc3)C(c3ccco3)C2C(=O)N1c1ccc(Br)cc1` (centres undefined)?
HIV TAR-Tat: -3.3; CDC25B CDK2 inh: -0.7

How did Cc1ccc(C)c(NS(=O)(=O)c2ccc3oc(=O)c4ncn(C)c4c3c2)c1 do in these assays?
HIV TAR-Tat: -0.21

Results for CCCc1cc(=O)[nH]c(SC(C(=O)Nc2cc(C)on2)c2ccccc2)n1 (centres undefined) ?
HIV TAR-Tat: -0.35; CDC25B CDK2 inh: 0.01

What do the screens show for `CCOC(=O)Cn1c(=O)oc2cc(S(=O)(=O)Nc3cc(OC)cc(OC)c3)ccc21`?
CDC25B CDK2 inh: -0.47

What do the screens show for `Cc1ccc2c(=O)cc(C(=O)Nc3sc4c(c3C(N)=O)CCCC4)oc2c1C`?
HIV TAR-Tat: -1.2; CDC25B CDK2 inh: 0.75

Results for N#C/C(=C\Nc1ccc(F)c(Cl)c1)C(=O)C1CC1 ?
CDC25B CDK2 inh: -1.3

What do the screens show for `Cc1c(Br)c([N+](=O)[O-])nn1CC(=O)NCCCN1CCOCC1`?
HIV TAR-Tat: 0.56; CDC25B CDK2 inh: -1

What do the screens show for `O=C1NC(c2cccs2)c2c1n[nH]c2-c1ccco1` (centres undefined)?
HIV TAR-Tat: -3.9; CDC25B CDK2 inh: 1.8

How did C=CCc1c(C)nc(-c2ccc(F)c(Cl)c2)[nH]c1=O do in these assays?
CDC25B CDK2 inh: -1.9

Results for COc1ccc(-c2cc3ncc(C(=O)c4cc(C)ccc4O)cn3n2)cc1 ?
HIV TAR-Tat: -0.23; CDC25B CDK2 inh: -0.95

How did COc1cc2nc(NCCN3C(C)CCCC3C)n3nc(-c4cccnc4)nc3c2cc1OC (centres undefined) do in these assays?
CDC25B CDK2 inh: 0.98

Results for O=C(c1ccc(N2C(=O)CCS2(=O)=O)cc1Cl)N1CCCC1 ?
HIV TAR-Tat: 1.1; CDC25B CDK2 inh: -1.4

What do the screens show for `CCOC(=O)N1CCN(C(=O)COc2cc(=O)n(C)c3ccccc23)CC1`?
HIV TAR-Tat: 2.3; CDC25B CDK2 inh: -2.2

What do the screens show for `CC[C@@H](CO)NCCN[C@@H](CC)CO`?
HIV TAR-Tat: 2.9

What do the screens show for `Cc1cc2c(cc3n2CC(C)(C(=O)NC2CCCCC2)N(C2CCCCC2)C3=O)o1` (centres undefined)?
HIV TAR-Tat: 2.8

How did CC(C)CCNC(=O)CN(C)c1nnc(N2CCCC2=O)s1 do in these assays?
HIV TAR-Tat: 1.6; CDC25B CDK2 inh: -2.2

How did CCOc1ccccc1N(C)C(=O)c1noc2c1COc1ccccc1-2 do in these assays?
HIV TAR-Tat: 0.36; CDC25B CDK2 inh: -1

How did CC(=O)OCC(COC(C)=O)OC(C)=O do in these assays?
HIV TAR-Tat: -0.95

Results for COc1ccc(-n2ccnc(NCCC3=CCCCC3)c2=O)cc1Cl ?
HIV TAR-Tat: -0.11

Results for NC1CCN(O)C1=O (centres undefined) ?
CDC25B CDK2 inh: -1.1

What do the screens show for `Cn1c(CCc2ccc(NS(=O)(=O)c3ccccc3)cc2)nc2ccccc21`?
HIV TAR-Tat: 1.3

What do the screens show for `CCCCC(=O)Nc1ccc(-n2cnnn2)cc1`?
HIV TAR-Tat: 1.2; CDC25B CDK2 inh: 1.4

How did CCC(C(=O)Nc1c(F)cc(F)cc1Br)n1c2ccccc2c2nc(=O)cc(C)n21 (centres undefined) do in these assays?
HIV TAR-Tat: -2.2; CDC25B CDK2 inh: -2.5

Results for O=C1c2ncccc2-c2cccnc21 ?
CDC25B CDK2 inh: 0.54

What do the screens show for `O=c1[nH]c(Nc2ccc3c(c2)OCCO3)nnc1Cc1ccc(Cl)cc1`?
HIV TAR-Tat: -2.1; CDC25B CDK2 inh: 0.32

What do the screens show for `C=CCSc1nc2c(c(=O)[nH]1)C(c1ccc(OCCCC)cc1)CC(=O)N2` (centres undefined)?
HIV TAR-Tat: -0.14; CDC25B CDK2 inh: -1.1

What do the screens show for `CC(=O)N1N=C(c2ccc(F)cc2)OC12CCCC2`?
CDC25B CDK2 inh: -1.7

How did CCOc1ccc(NC(=O)N2CCN(c3nc4cc(F)ccc4n4cccc34)CC2)cc1 do in these assays?
HIV TAR-Tat: 0.59

What do the screens show for `O=C1c2ccccc2C(=O)N1CC1c2ccccc2CCN1C(=O)CN1CCOCC1` (centres undefined)?
CDC25B CDK2 inh: -0.65

Results for COc1ccc(OC)c(C2C3=C(CC(C)(C)CC3=O)NC3=C2C(=O)c2ccccc23)c1 (centres undefined) ?
HIV TAR-Tat: 1.3; CDC25B CDK2 inh: 0.07

How did COCCCn1c2c(c(=O)[nH]c1=O)C(c1ccc(C)cc1)C1=C(N2)c2ccccc2C1=O (centres undefined) do in these assays?
HIV TAR-Tat: 2.3; CDC25B CDK2 inh: 0.53

Results for COC(=O)c1c(NC(C)=O)csc1C ?
CDC25B CDK2 inh: -1.7

Results for O=C(O)c1ccccc1Nc1cccc2c1C(=O)c1cccc(Nc3ccccc3C(=O)O)c1C2=O ?
HIV TAR-Tat: 19*

What do the screens show for `COc1ccc(-c2nc3cc(C)ccc3o2)cc1`?
HIV TAR-Tat: -14

How did O=c1cc(CSc2n[nH]c(-c3ccccc3F)n2)nc2sc3c(n12)CCCC3 do in these assays?
HIV TAR-Tat: 0.64

How did CC1CN(c2ncnc3nc[nH]c23)CC(C)O1 (centres undefined) do in these assays?
CDC25B CDK2 inh: -0.59

What do the screens show for `CCc1cc(C(=O)Nc2ccc3c(c2)OCO3)no1`?
HIV TAR-Tat: -0.38; CDC25B CDK2 inh: -2.5

What do the screens show for `COc1ccc(-c2nnc3c4cc5c(cc4n(Cc4ccccc4)cc2-3)OCCO5)cc1OC`?
HIV TAR-Tat: 0.88; CDC25B CDK2 inh: 2

How did O=C(Nc1ccc2nc3n(c(=O)c2c1)CCCC3)c1cccs1 do in these assays?
HIV TAR-Tat: 1.1; CDC25B CDK2 inh: -0.04

Results for COC(=O)C1=C(N)OC2=C(C(=O)CC(C)(C)C2)C1c1cccs1 (centres undefined) ?
CDC25B CDK2 inh: -1.8

What do the screens show for `Cc1ccc(Nc2nc(N(C)C)nc3c2cnn3C)c(C)c1`?
HIV TAR-Tat: 0.61

Results for O=C(NCCCN1CCN(c2ccccc2)CC1)C1=Cc2cc(Br)ccc2OC1 ?
HIV TAR-Tat: 1.2

Results for NC(=O)Cn1cc(C(=O)c2ccco2)c2ccccc21 ?
HIV TAR-Tat: 0.53; CDC25B CDK2 inh: 0.53

Results for CCCCn1c(C)c(C)c2c1ncn1nc(Cc3ccc(OC)c(OC)c3)nc21 ?
HIV TAR-Tat: 1.5; CDC25B CDK2 inh: 0.05

What do the screens show for `COc1cccc(-c2nc(=S)c3c([nH]2)Oc2c(cccc2OC)C3)c1O`?
HIV TAR-Tat: 35*; CDC25B CDK2 inh: 7.4

How did COc1ccc(NC(=O)CSc2nnc(C)n3c2cc2occc23)c(OC)c1 do in these assays?
HIV TAR-Tat: 2.9

What do the screens show for `CCOC(=O)c1sc2ccccc2c1S(=O)(=O)N1CCC(C(N)=O)CC1`?
HIV TAR-Tat: 0.36
